PABP FP inh = blocks human PABP binding to poly(A) RNA; hit rate 1% among 290,000; inhibition, % at 35 µM; AID 2014; fluorescence polarization; P11940;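 active means 50% or more with normal probe brightness, or confirmed in later tests; about a fifth of its hits are not listed in these tables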;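 further: calls also rest on retests at 20 µM and on dose response follow-up; controls were probe without protein and protein plus probe with vehicle; some compounds called inactive have numbers as strong as hits; many hits fall short of the cut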
UUG fidelity = alters start codon recognition fidelity in yeast; S. cerevisiae UUG-firefly luciferase reporter, luminescence/redox ratio; activity score, % at 18.7 µM; hit rate 0.13% among 350,000; AID 602363;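 active means replicate mean at a twofold rise or more, about +100% in these data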;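 further: firefly luciferase made from a UUG start codon reports start codon fidelity; reporter light over untreated wells divided by growth signal over untreated wells; some hits fall short of that in this replicate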
eIF4H FP inh = inhibitors of RNA binding by human eIF4H. Q15056. eIF4H fluorescence polarization binding assay. inhibition, % at 35 µM. hit rate 0.94% among 290,000. AID 2012;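 active means 50% or more with normal probe brightness, or confirmed in later tests; about a fifth of its hits are not listed in these tables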;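 further: calls also rest on retests at 20 µM and on dose response follow-up; 0% = protein and probe with vehicle and 100% = probe without protein; strong numbers were not always called active; many hits fall short of the cut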
Rce1 inhib = blocks yeast Ras-converting enzyme | hit rate 0.27% among 290,000 | yeast membranes, quenched prenylated peptide cleavage fluorescence | calls only | Q03530;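 active means fall in fluorescence gain of 50% or more versus controls, with final raw signal at or below 3038400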;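 further: plate controls were neutral control wells for no effect and wells lacking membranes for full effect; tested at 10 µM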
Target sequence (Q03530 whole entry, looked up): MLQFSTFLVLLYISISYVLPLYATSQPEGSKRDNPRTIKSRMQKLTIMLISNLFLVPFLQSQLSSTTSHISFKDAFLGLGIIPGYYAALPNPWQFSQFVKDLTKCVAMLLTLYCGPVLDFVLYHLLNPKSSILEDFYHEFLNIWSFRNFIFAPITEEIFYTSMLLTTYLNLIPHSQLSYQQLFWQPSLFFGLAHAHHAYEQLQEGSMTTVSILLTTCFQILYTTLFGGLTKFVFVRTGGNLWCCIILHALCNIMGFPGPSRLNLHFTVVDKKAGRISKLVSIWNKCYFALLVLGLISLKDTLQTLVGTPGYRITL
MT1-MMP act inh = MT1-MMP (human) activation inhibition | P50281 | HT1080 RFP-PRO-GFP cells, GFP/RFP ratio fluorescence, overnight; percent of plate control window, DMSO zero | GFP/RFP ratio change, % at 20 µM | hit rate 0.061% among 360,000 | AID 651647;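 active means GFP/RFP ratio change of at least 30% with cell ATP level not reduced by more than half and red fluorescence within 50% of control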; further: strong numbers were not always called active
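Read-out: GFP/RFP fluorescence ratio; Test system: RFP-PRO-GFP reporter HT1080 cells; Compound dosing: single-point 20 µM compound, 1% DMSO; Times: overnight compound exposure at 37 °C.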
CSC inhib = cancer stem cell inhibition | cancer stem cell-like cells viability, luminescence | inhibition, % at 7.5 µM | hit rate 1.1% among 300,000 | AID 2717;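 active means mean at 75% or more and at least half the replicates too; tested in HMLE shEcad cells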;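 further: 0% = median of negative and 100% = median of positive control wells; the first replicate is given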
Env fusion inh = blocks HIV Env-driven cell-cell fusion; HeLa-JRFL Env/CEM21 cell fusion, luciferase; inhibition, % at 12.3 µM; hit rate 1.1% among 360,000; AID 651610;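 active means mean replicate inhibition score of at least 50 and every replicate individually at or above 50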;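 further: 0% = plate neutral controls and 100% = maraviroc near 300 nM; one replicate is shown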
eIF4H FP inh retest = further read-out of eIF4H FP inh, marked with its call; inhibition, %; compound at 20 µM; confirmation average;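 mean of two retest wells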
PABP FP inh retest = also measured in PABP FP inh; calls as there; inhibition, %; compound at 20 µM; confirmation repeats;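 mean of two retest wells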
MT1-MMP act inh RFP = also measured in MT1-MMP act inh; calls as there; RFP signal change, %; measured here: RFP expression control read;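 0 = vehicle wells; hits needed this value within 50% of zero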
Numbers without * were called inactive; i = inactive; nt = no result given; & = joins results of further samples; [ ] = remark or other dose. A portion of the library (hit frequency here may not be typical).

SMILES	PABP FP inh	UUG fidelity	eIF4H FP inh	Rce1 inhib	MT1-MMP act inh	MT1-MMP act inh RFP	CSC inhib	Env fusion inh	others
O=C(NCCCN1CCOCC1)c1ccc2c(=O)n(-c3ccc(F)c(Cl)c3)c(=S)[nH]c2c1	4	-25	-3	i	2	-4	-13	5
N=c1c2c(ncn1CCN1CCOCC1)Oc1ccc3ccccc3c1C2c1ccccc1 (configuration not stated)	-4	-11	0	i	13	-6	52	-282
O=C(CN(c1ccccc1)S(=O)(=O)c1ccccc1)N1CCN(Cc2ccc3c(c2)OCO3)CC1	-10	3	4	i	2	-8	-10	nt
COC(=O)Nc1nn(-c2ccc(C)cc2)c(=O)c(C#N)c1C	-6	nt	-2	i	-3	-1	-3	10
CC1(C)CC(=O)C(C(c2ccco2)C2C(=O)CC(C)(C)CC2=O)C(=O)C1	-2	-24	-6	nt	-4	0	6	9
CN(Cc1ccccc1)C(=O)c1cccc(NC(=O)Cc2ccc(NC(=O)C3CCCN(C(=O)C4CC4)C3)cc2)c1 (configuration not stated)	nt	11	nt	nt	2	-2	nt	-3
CCn1c(SCc2cc(=O)[nH]c3ccccc23)nnc1C1CC1	-3	nt	-4	i	-3	1	6	nt
OCC1(CO)COC(/C=C/c2ccccc2)=N1	7	-15	-1	i	2	-1	-16	-10
COC(=O)c1ccc(NC(=O)CSc2nnc(CNc3ccc(OC)cc3)n2C)cc1	1	-17	1	i	0	5	-4	nt
COCCn1c(Cc2ccccc2)nnc1SCC(=O)N1CCCC1=O	nt	-26	nt	nt	6	3	nt	-72
O=C(NCC1COc2ccccc2O1)C1CCCN(S(=O)(=O)c2cnc[nH]2)C1 (configuration not stated)	-2	-15	-9	i	-5	1	-10	-13
C1=CC2CCC1ON2c1ccccc1 (configuration not stated)	-4	-9	5	i	15	13	-6	-6
COc1ccc(CN(C)Cc2nc(Cc3ccccc3Cl)no2)cc1OC	4	5	1	i	-2	-18	-6	-56
CC(C)NC(=O)/C(=C/c1ccco1)c1ccccc1	1	-10	-10	i	-12	1	14	nt
CNC(=O)Nc1cccc2cccnc12	2	nt	16	i	-2	1	-11	2
CCn1c(C)nc2cc(C(=O)NNS(=O)(=O)c3ccc(C)c(C)c3)ccc21	-1	-8	-3	i	-2	6	-11	nt
Cc1noc(C)c1NC(=O)N(C)C[C@@H]1Oc2cc(Br)ccc2S(=O)(=O)N([C@H](C)CO)C[C@@H]1C	nt	9	nt	nt	5	7	nt	2[16.7 µM]
Cc1ccc(C(O)(COC(=O)C(C)C)COC(=O)C(C)C)c(O)c1	18	-6	20	nt	6	3	-8	nt
O=C(CNC(=O)N1CC(=O)Nc2ccccc21)NCc1ccccc1Cl	11	-19	-7	i	2	2	-19	-5
Cc1ccc(S(=O)(=O)Nc2ccccc2C(=O)Nc2nc(-c3ccc(F)cc3)cs2)cc1	13	-8	-3	i	-29	-40	0	56*
O=c1ccc2ccc(Oc3ccc(Cl)cc3[N+](=O)[O-])cc2o1	-2	nt	-3	i	-2	1	0	-2
COc1cc(NC(=O)Cc2ccccc2)c(C(=O)O)cc1OC	-3	nt	-8	i	-2	4	-9	2
CS(=O)(=O)N(Cc1ccccc1)c1ccccc1C(=O)Nc1ccccc1C(=O)NCc1ccco1	-1	-10	6	i	0	1	5	nt
COc1cc(S(=O)(=O)NCc2ccncc2)c(OC)cc1Br	3	-14	1	i	-5	-16	-4	20
CCCN1C(=O)COc2ccc(-c3n[nH]c(=O)c4ccccc34)cc21	-6	nt	1	i	0	-15	11	16

Overlap with the part before: four compounds, then new ones.
SMILES	PABP FP inh	UUG fidelity	eIF4H FP inh	Rce1 inhib	MT1-MMP act inh	MT1-MMP act inh RFP	CSC inhib	Env fusion inh	others
COc1cc(NC(=O)Cc2ccccc2)c(C(=O)O)cc1OC	-3	nt	-8	i	-2	4	-9	2
CS(=O)(=O)N(Cc1ccccc1)c1ccccc1C(=O)Nc1ccccc1C(=O)NCc1ccco1	-1	-10	6	i	0	1	5	nt
COc1cc(S(=O)(=O)NCc2ccncc2)c(OC)cc1Br	3	-14	1	i	-5	-16	-4	20
CCCN1C(=O)COc2ccc(-c3n[nH]c(=O)c4ccccc34)cc21	-6	nt	1	i	0	-15	11	16
CCOC(=O)C(Cc1cc(C(C)=O)ccc1OC(C)C)C(=O)OCC	0	-5	-2	i	1	7	-10	nt
Cc1ccc(S(=O)(=O)NCCC(=O)Nc2ccc(C)c(Cl)c2)cc1C	-5	-5	-1	i	4	1	nt	8
O=C(COC(=O)C1=COCCO1)Nc1ccc(F)c(F)c1	nt	-23	nt	i	-4	0	-2	2
COC(=O)CSc1nnc(-c2ccccc2OC)n1-c1ccc(C)cc1	-2	-16	-6	i	-3	-2	-11	24
NC(Cc1ccccc1)c1csc(Nc2ccc(C(=O)c3ccccc3)cc2)n1 (configuration not stated)	nt	20	nt	nt	-10	-16	nt	8
O=S1(=O)C[C@H](N2CCC[C@@H]2CO)[C@@H](COCc2ccccc2)N1	nt	-9	nt	nt	4	5	nt	-1
COC(=O)C1C(=O)N2CCCSC2=C(C#N)C1c1cccs1 (configuration not stated)	-2	-16	0	nt	-2	3	nt	nt
COc1ccc(/C(C)=N/OC/C(O)=C(\C#N)c2nc3ccccc3[nH]2)cc1OC	-10	nt	-9	i	-2	-6	-3	5
O=C(Nc1ccccc1)c1cccc(NC(=O)c2ccco2)c1	nt	-6	nt	i	1	-1	2	8
O=C(CSc1nc2ccccc2o1)Nc1nccs1	3	nt	1	i	-1	3	5	2
O=C(NNC(=O)c1nc2ccccc2[nH]1)OCc1ccccc1	nt	-13	nt	nt	5	4	4	-16
CC1(C(=O)NS(=O)(=O)Cc2ccccc2)CCN1C(=O)Cc1ccccc1Cl (configuration not stated)	nt	-21	nt	nt	-2	3	nt	-38
Cc1ccc(NC(=O)CN(C)C(=O)C2CC(=O)N(Cc3ccccc3)C2)cc1 (configuration not stated)	-14	-10	-11	i	1	3	nt	5
O=C1c2cccnc2C(Nc2ccccc2Br)N1Cc1ccco1 (configuration not stated)	-4	nt	-1	nt	-1	-2	-5	10
CCSC1=NC2(CCCCC2)Nc2sc3c(c21)CCCC3	2	-8	2	i	0	-5	13	-37
COc1ccc(C(CNC(=O)c2cccc(S(=O)(=O)Nc3ccc(C)cc3)c2)N2CCOCC2)cc1 (configuration not stated)	nt	nt	nt	i	8	-1	35	2
Cc1ccc2c(CSc3nnnn3C)cc(=O)oc2c1	-7	2	9	i	-6	-7	-4	0
COc1ccc(OC)c(NC(=O)COc2ccc3c(c2)CCC3)c1	nt	-10	nt	nt	0	-5	nt	70*
O=c1[nH]n(CC2COC3(CCCCC3)O2)c(=O)c2ccccc12 (configuration not stated)	1	-16	0	i	11	-1	2	nt
COc1ccc(C2C3=C(N=C4SCC(=O)N42)c2ccccc2CC3)cc1OC (configuration not stated)	11	nt	-4	i	0	2	0	nt
O=C(O)C1CCCN(S(=O)(=O)c2ccc(Cl)s2)C1 (configuration not stated)	-14	-12	-9	i	-1	6	-7	-24
CC(C)Cn1c(SCC(=O)N2CCOCC2)nc2ccccc2c1=O	nt	-8	nt	nt	-2	1	nt	4
CC(C)(C)NC[C@H](O)COc1nsnc1N1CCOCC1	5	-18&-2&-5	-12	i	-2&-6&2	3&6&1	-13&-11	7&-7&8
COC(=O)CCC(=O)OC1(C)C(=O)C=C2C=C(C3CC3)N(CCc3c[nH]c4ccccc34)C=C2C1=O (configuration not stated)	7	-19	-1	i	-4	4	9	nt
COc1ccc(OC)c(C2C(C(=O)Nc3ccccc3OC)=C(C)Nc3nc(CCCO)nn32)c1 (configuration not stated)	-14	-1	-5	i	1	6	-16	-4

(list continues)
SMILES	PABP FP inh	UUG fidelity	eIF4H FP inh	Rce1 inhib	MT1-MMP act inh	MT1-MMP act inh RFP	CSC inhib	Env fusion inh	others
COc1ccc(OC)c(NC(=O)CSc2nncc3ccccc23)c1	10	-11	5	i	-2	-1	2	18
CCOc1ccc(NS(=O)(=O)c2ccc(NC(=O)[C@@H]3CCCC[C@@H]3C(=O)O)cc2)cc1	2	nt	2	i	0	1	-16	-6
Fc1cc(F)c2nc(Nc3nc4c(F)cccc4s3)sc2c1	0	nt	12	i	-13	-21	14	40
C=CCOc1cccc(C2C(C(=O)c3ccc(C)o3)=C(O)C(=O)N2CCCn2ccnc2)c1 (configuration not stated)	-4	-10	-4	i	1	-3	-13	4
COc1cc(NC(=S)Nc2ccc(Br)cc2Cl)c(OC)cc1Cl	13	-12	-1	i	1	0	7	24
On1c(-c2ccccc2Cl)nc2ncccc21	12	-11	-4	i	1	7	-3	3
CCOC(=O)C1CCCN(C(=O)c2ccc(Cl)c(S(=O)(=O)N3CCc4ccccc43)c2)C1 (configuration not stated)	nt	-5	nt	nt	2	-4	nt	8
CC1Cc2ccccc2N1C(=O)CCS(=O)(=O)c1cccs1 (configuration not stated)	-4	-10	-5	i	-2	-2	-6	-17
CCCCNC(=O)c1ccc(N2CCC3(CC2)OCCO3)c([N+](=O)[O-])c1	-6	0	2	i	1	-3	3	16
CC(C)C[C@H](NC(=O)Nc1ccc(Oc2ccccc2)cc1)C(=O)O	9	nt	6	i	5	6	-2	-8
O=C1NCC(COCC2CC=CCC2)O1 (configuration not stated)	10	-10	2	i	-3	-3	0	-22
COc1cccc(NC(=O)CSCc2cc(=O)n3nc(C4CC4)sc3n2)c1	1	-2	-8	i	-1	-1	-8	-2
CCn1c(=O)c(=O)[nH]c2cc(C(=O)NCC3CCCCC3)ccc21	-16	7	-8	i	20	13	-10	27
CC(C)S(=O)(=O)C/C(N)=N/OS(=O)(=O)c1ccc(Cl)cc1	-1	nt	0	i	2	4	-2	16
COC(=O)c1c(N)sc(C(=O)N2CCOCC2)c1C	6	-12	-2	i	2	5	-1	nt
CCOc1cc2c(C#N)c(N(CC)CC)nc(N)c2c(N)n1	nt	-8	nt	i	5	22	10	5
Cc1ccc(-c2nc(C)sc2CC(=O)NCc2ccco2)cc1	-2	3	-1	i	-1	-4	nt	-11
Cc1cc(C)nc(SCc2nnc(SCC(=O)Nc3c(C)cccc3C)o2)n1	-2	nt	9	nt	-2	1	9	nt
CCN1CCCc2cc(CN(CCN3CCOCC3)C(=S)Nc3ccccc3OC)ccc21	18	nt	-4	i	-2	0	-11	14
CC(=O)Nc1ccc(S(=O)(=O)N2CCN3CCCC3C2)cc1 (configuration not stated)	57	-13	0	i	2	4	-20	-30	eIF4H FP inh retest=2;PABP FP inh retest=17
CCn1cc2nc(SCC(=O)Nc3ccc(OC)c(OC)c3)n(Cc3ccc(OC)cc3)c(=O)c2n1	-9	-1	-7	i	-2	2	-3	2
CCOc1ccccc1NC(=O)C(CC(C)C)NC(=O)C1CCC(C)CC1 (configuration not stated)	-5	-10	5	i	-4	-4	-3	-31
CCC(CC)N1CCN(CCc2ccccc2)C(CCO)C1 (configuration not stated)	4	1	-9	i	7	4	-1	-8
Cc1cc(C)n2nc(C(=O)NCc3ccccc3)nc2n1	2	0	-1	i	6	8	nt	nt
CN(C)CCCN(C(=O)c1ccc(S(=O)(=O)N2CCCc3ccccc32)cc1)c1nc2ccc(F)cc2s1	2	15	-2	i	3	-1	15	7
CCOC(=O)C1=C(NC#N)OC(C)=C(C)C1c1ccc(O)cc1 (configuration not stated)	31	16	1	i	-2	0	15	nt

Reprinted at random: 3 compounds from above, in no set order.
SMILES	PABP FP inh	UUG fidelity	eIF4H FP inh	Rce1 inhib	MT1-MMP act inh	MT1-MMP act inh RFP	CSC inhib	Env fusion inh	others
COc1cc(NC(=S)Nc2ccc(Br)cc2Cl)c(OC)cc1Cl	13	-12	-1	i	1	0	7	24
CCOc1cc2c(C#N)c(N(CC)CC)nc(N)c2c(N)n1	nt	-8	nt	i	5	22	10	5
CCN1CCCc2cc(CN(CCN3CCOCC3)C(=S)Nc3ccccc3OC)ccc21	18	nt	-4	i	-2	0	-11	14
